High-throughput results (PubChem)
KCNQ2 pot – potentiators of rat KCNQ2 potassium channel | B-score at 10 µM | CHO-K1 KCNQ2, FluxOR thallium flux fluorescence; active compounds read high | actives 0.54% (n = 310,000);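 active = fluorescence ratio B-score at least 3 SD of library B-scores, with initial fluorescence B-score within 3 SD, cut at about 5.3 in these data; same plate scores as AID 2156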;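 note: B-score of peak minus minimum over baseline fluorescence ratio after K+ and Tl+ stimulus; positive B-score means potentiation of KCNQ2 with more thallium influx and brighter signal; only the inactives scoring about 0 or higher are listed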
Target sequence (O88943 whole entry, looked up): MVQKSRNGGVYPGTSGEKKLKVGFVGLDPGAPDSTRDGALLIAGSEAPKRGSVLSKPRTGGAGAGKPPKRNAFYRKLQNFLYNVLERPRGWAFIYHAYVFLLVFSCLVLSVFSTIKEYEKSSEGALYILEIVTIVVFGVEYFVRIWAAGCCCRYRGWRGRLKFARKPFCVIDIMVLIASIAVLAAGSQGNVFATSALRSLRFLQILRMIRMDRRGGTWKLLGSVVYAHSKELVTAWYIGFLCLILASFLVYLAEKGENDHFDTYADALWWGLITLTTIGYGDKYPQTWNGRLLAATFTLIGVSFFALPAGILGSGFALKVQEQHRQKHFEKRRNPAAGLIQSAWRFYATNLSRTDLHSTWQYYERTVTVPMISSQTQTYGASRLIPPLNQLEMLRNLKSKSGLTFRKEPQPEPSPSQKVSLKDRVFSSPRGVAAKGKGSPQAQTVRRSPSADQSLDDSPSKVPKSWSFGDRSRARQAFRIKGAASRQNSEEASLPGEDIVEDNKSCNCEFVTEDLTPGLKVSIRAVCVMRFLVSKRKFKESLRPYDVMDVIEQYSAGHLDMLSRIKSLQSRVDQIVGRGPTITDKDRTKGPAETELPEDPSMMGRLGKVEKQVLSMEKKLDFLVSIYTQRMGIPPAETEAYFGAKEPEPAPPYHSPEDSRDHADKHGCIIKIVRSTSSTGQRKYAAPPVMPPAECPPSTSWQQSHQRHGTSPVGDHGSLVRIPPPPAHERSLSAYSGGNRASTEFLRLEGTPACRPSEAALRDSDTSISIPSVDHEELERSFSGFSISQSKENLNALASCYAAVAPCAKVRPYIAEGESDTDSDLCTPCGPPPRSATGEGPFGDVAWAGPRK
KCNQ2 pot baseline – recorded beside KCNQ2 pot, whose call it bears; B-score; compound at 10 µM; measured here: initial fluorescence intensity artifact check;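 brightness before thallium and not channel activity; 0 = typical well and far values either way flag optical interference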
An asterisk follows results filed as active. The list is partial; count on the stated rates, not on these rows.

SMILES	KCNQ2 pot	KCNQ2 pot baseline
CCSc1nc(NCCN(C)C)c2c3c(sc2n1)COC(C)(CC)C3 (stereo not given)	1.6	-1.9
COc1cccc(NC(=O)CSc2nnc(-c3cc(-c4ccccn4)nc4ccccc34)o2)c1	0.11	0.04
CCN(CC)C1CC(=O)N(c2cccc(C)c2)C1=O (stereo not given)	2	-1
CCNS(=O)(=O)c1cc(S(C)(=O)=O)ccc1Cl	0.13	-0.76
Cc1nn(C(=O)CNC(=O)c2ccccc2)c(C)c1C	8.9*	0.04*
CCOC1(NC(=O)c2ccccc2)C(C)=CC(=O)C=C1C	0.01	-2.3
CNC(=O)c1oc(-c2ccc(Cl)cc2)nc1C	0.09	-0.36
CCCCOc1cccc(C(=O)O)c1	0.9	-0.04
O=C1CC(c2ccccc2F)C2=C(COC2=O)N1 (stereo not given)	0.69	-1.2
CS(=O)(=O)Nc1ccc(C(=O)NC2CCCC2)cc1	0.53	0.03
Clc1ccc2c(NCc3cccs3)ncnc2c1	2	-2.6
Cc1cccc(C(=O)NC2CCN(C(=O)Nc3ccc(F)cc3)CC2)c1	0.09	1.5
Cc1ccc(-c2cc(-c3ccccc3O)nc(N/N=C/c3cccnc3)n2)cc1	1.4	-1.7
Cc1cccc(NC(=O)c2cnn3ccccc23)c1C	1	-0.04
Cc1onc(-c2c(F)cccc2Cl)c1C(=O)OCC(=O)NC1CC1	0.96	-0.31
CCN(CC)CCCOC(=O)C1(c2ccccc2)CCCC1	0.09	2.3
Nc1cc(N)nc(SCC(=O)Nc2ccccc2)n1	0.05	-0.4
O=C(c1cc(F)ccc1F)C1CCCN(C(=O)c2ccco2)C1 (stereo not given)	1.6	-1.5
Cc1c(Cl)cccc1NC(=S)NCc1cccn1C	1.2	-0.2
O=C(NC1CC2CCCC(C1)N2C(=O)NC1CCCCC1)c1ccccc1 (stereo not given)	0.42	-2.1
O=C(NCC1CCCO1)c1ccc2c(c1)OCO2 (stereo not given)	0.19	1.1
CSCCC(NC(=O)COc1ccccc1)C(=O)OC(C)C(=O)Nc1ccccc1C (stereo not given)	0.66	-0.04
CCC(C)NC(=O)CC(NS(=O)(=O)c1ccc(C)cc1)c1ccc(OC)cc1 (stereo not given)	0.85	-0.47
COC(=O)CC/C(C)=N\Nc1ccc([N+](=O)[O-])cc1[N+](=O)[O-]	0.25	0.05
O=c1ccn(Cc2ccccc2)cc1	0.62	0.02
SMILES	KCNQ2 pot	KCNQ2 pot baseline
O=C(CSc1nc2ccccc2s1)c1cc2ccccc2o1	0.44	0.09
Cc1nc2c(nnn2Cc2ccccc2Cl)c(=O)[nH]1	1.3	-1.2
CC(/C=N/NC(=O)c1ccc(Cn2cc([N+](=O)[O-])cn2)o1)=C\c1ccccc1	0.68	-1.6
Cn1c(=O)[nH]c(=O)c2c1nc(CN1CCN(c3ccccc3F)CC1)n2CCc1ccccc1	0.96	-1.6
O=C(CN1C2=NCCCN2c2ccccc21)c1ccc(Br)s1	0.06	-1.1
CCS(=O)(=O)Nc1ccc(C2=NN(S(=O)(=O)CC)C(c3cccs3)C2)cc1 (stereo not given)	0.66	-0.37
Clc1ccc(-c2nnc(-c3ccccc3)c(-c3c[nH]c4ccccc34)n2)cc1	1.1	-0.81
CCOC(=O)N1N=C(c2ccccc2)CC1(O)C(C)(F)F (stereo not given)	1	-0.89
CCCn1c(N)cc(=O)n(CCC)c1=O	0.06	0.76
CCC(Sc1ccc(Cl)cc1)C(=O)Nc1nnc(-c2cccc([N+](=O)[O-])c2)s1 (stereo not given)	0.19	-0.31
CCOc1ccc(C(C)=O)cc1CN1C(=O)NC(C)(C2CC2)C1=O (stereo not given)	0.01	-0.29
COC(=O)c1ccc(C(c2c(N)n(Cc3ccccc3)c(=O)n(C)c2=O)N2CCOCC2)cc1 (stereo not given)	0.76	-1.7
CN1CCN(CCCNC(=O)c2ccc(Cn3c(=S)[nH]c4ccc(Br)cc4c3=O)cc2)CC1	0.27	-0.01
CC(C)(C(=O)c1ccccc1)/[N+]([O-])=C/c1ccccc1	0.16	-0.21
Cc1nc(N2CCOCC2)c2c(C)c(C(=O)Nc3ccc(F)cc3F)sc2n1	0.51	0.83
CCOC(=O)N1CCC(NC(=O)c2cc(S(=O)(=O)N3CCCC3)cn2C)CC1	1.8	-0.01
Cc1ccc(CC(CC(=O)O)C(=O)Nc2ccc(Cl)cc2)cc1 (stereo not given)	1.1	-0.34
O=C(CN1CCCCC1)NCCNC(=O)CN1CCCCC1	1.1	-0.13
C=CC1=C(C(=O)O)N2C(=O)C(NC(=O)Cc3ccccc3)C2SC1 (stereo not given)	0.29	-0.26
CCCc1n(CC)c2ccccc2[n+]1CC(O)COC1CCCCC1 (stereo not given)	1.8	-0.42
COc1cc(NC(=O)c2ccc(COCC(F)(F)F)cc2)cc(OC)c1OC	0.01	0.03
O=C(N/N=C/c1c[nH]c2ccccc12)c1ccccc1O	0.04	0.12
Cc1cccc(-c2n[nH]c(S(C)(=O)=O)c2C#N)c1	1.1	-1.3
CCOC(=O)C1CCN(C(=O)C2CCCN(S(=O)(=O)c3ccc(OCC)c(Cl)c3)C2)CC1 (stereo not given)	1.2	-0.74
NC(=O)NC(=O)C[n+]1cccc(/C=N/O)c1	0.52	0.97
SMILES	KCNQ2 pot	KCNQ2 pot baseline
Cc1cc(O)c2c(c1)C(O)(C1OC(CO)C(O)C(O)C1O)c1cccc(O)c1C2=O (stereo not given)	0.85	-0.9
Cc1ccc2nc3c(nc2c1C)C(O)=C3O	0.26	-0.56
S=C1NCN(Cc2ccco2)CN1CCc1ccccc1	0.03	-0.06
Cc1ccccc1C(=O)NC(=S)NC1CCSC1=O (stereo not given)	0.01	0.24
CCN(C1CCCCC1)S(=O)(=O)c1c(C)n(C)c(=O)n(C)c1=O	0.38	-0.02
COc1cc(C)ccc1OCCCCN1CC(C)OC(C)C1 (stereo not given)	0.82	-0.32
Cc1cccc(-c2noc(CNC(=O)Nc3ccc(F)cc3)n2)c1	0.41	-0.39
CCN(CC)c1ccc(C(=O)n2cnc3ccccc32)cc1	0.28	-0.64
CCCn1c(N)c(N(CCOC)C(=O)c2cc(-c3ccco3)nc3ccccc23)c(=O)[nH]c1=O	1.2	-1.9
CCOC(=O)C1C(=O)NC(c2ccccc2)=NC1c1cccc(Br)c1 (stereo not given)	1.6	-0.71
COc1ccc([N+](=O)[O-])cc1C(=O)NC1CCN(Cc2ccccc2)CC1	0.37	0.96
Cc1cccc(CN2C(=O)c3ccccc3Sc3ccc(C(=O)O)cc32)c1	0.08	-2.6
CCCOC(=O)c1cccc(NC(=O)C(C)(C)C)c1	0.41	0.07
N#CC(CC(=O)c1ccc(F)cc1)c1ccc2c(c1)OCO2 (stereo not given)	0.63	1.2
CC(C)COc1ccc(C(=O)N2C(=O)c3ccc(N)cc3C2=O)cc1	0.97	-0.48
O=C(O)/C=C/c1cccc(NS(=O)(=O)c2ccccc2)c1	2.1	-1.9
COCCn1c(NC(=S)NC(=O)C23CC4CC(CC(C4)C2)C3)cc(=O)[nH]c1=O	0.38	-0.27
COCCN1C(=O)c2ccccc2C(C(=O)N2CCN(c3ccccc3)CC2)C1c1ccc(F)cc1 (stereo not given)	1.2	-1.1
CN(C)CCN(Cc1cccs1)S(=O)(=O)c1csc(C(N)=O)c1	0.19	-0.3
CCOc1ccc(N(CC(=O)Nc2ccc(F)c(F)c2)S(=O)(=O)c2c(C)noc2C)cc1	0.22	-1
CN1CCN(c2ccc(Cl)cc2NC(=O)c2nn(-c3ccccc3)c(=O)c3ccccc23)CC1	2.9	-0.42
CC1(C)CC(=O)C(C=NCC2CCN(C(=O)Cc3ccccc3)CC2)=C(O)C1	0.91	0.8
Cc1ccc(C)c(N(CC(=O)NC2CCCCC2)C(=O)c2csnn2)c1	0.52	0.28
CC(=O)N1CCN(C(=O)COc2ccc(Br)cc2)CC1	1.1	0.08
CS(=O)(=O)NCCSc1nnnn1-c1ccccc1	0.12	0.99
SMILES	KCNQ2 pot	KCNQ2 pot baseline
Cc1cc2c(cc1S(=O)(=O)N1CCc3ccccc31)NC(=O)CO2	0.49	0.3
CCCCNC(=O)NNC(=O)COc1cc(C)cc(C)c1	1.5	1.1
CC(=O)C1=C(O)C(=O)N(CCc2c[nH]c3ccccc23)C1c1ccc(O)cc1 (stereo not given)	1.1	-0.42
CCc1csc(CCNC(=O)C2CCC(=O)N(CCOC)C2)n1 (stereo not given)	2.2	0.99
Cc1ccccc1Nc1nc(N)c2ccccc2n1	0.58	-1.7
COc1ccccc1OCCC(=O)OCC(=O)NC(C)c1ccccc1 (stereo not given)	0.08	-0.75
CCC(C)NCCCOc1c(C)cc(C)cc1Br (stereo not given)	0.27	2.2
S=c1[nH]nc(-c2cc(-c3ccco3)[nH]n2)n1-c1ccccc1	0.33	-0.02
Nc1cc(=O)[nH]c(SCCNS(=O)(=O)c2ccccc2)n1	0.43	-0.22
CCn1nc(C(=O)OCC(=O)c2c[nH]c3ccccc23)c2ccccc2c1=O	0.35	1.3
Oc1c(N=Nc2ccc(F)cc2)ccc2ccccc12	0.04	-1.2
CCCN(S(=O)(=O)c1ccc(OCC)cc1)S(=O)(=O)c1cccs1	1.2	0.59
CCOC(=O)c1ccc(NC(=O)CC2SC3=NCCN3C2=O)cc1 (stereo not given)	0.15	0.62
O=C(Cn1cc([N+](=O)[O-])ccc1=O)N1CCCc2ccccc21	0.67	0.16
COc1ccc(C(=O)CC2OC(=O)c3c2ccc(OC)c3OC)cc1 (stereo not given)	0.01	-1
Cc1cc(NC(=O)c2cc([N+](=O)[O-])cc([N+](=O)[O-])c2C)no1	0.27	0.49
CCC(C(=O)Nc1ccccc1C(=O)N1CCOCC1)N1C(=O)c2ccccc2C1=O (stereo not given)	0.09	0.76
CC(=O)N=c1sc2ccccc2n1C	0.29	-0.52
CCOc1ccc(-c2nn(-c3ccccc3)cc2/C=C2\SC(N)=NC2=O)cc1C	0.2	-1.5
Cc1ccccc1CS(=O)(=O)CCC(=O)N1CCN(c2ccc(N3CCOCC3)nn2)CC1	1	-0.17
Cn1cnnc1SCc1ccccc1[N+](=O)[O-]	1.9	-0.07
Cc1ccnc(Sc2ccc([N+](=O)[O-])cc2[N+](=O)[O-])n1	1	-0.04
COc1ccc(OCC(=O)Nc2ccc3c(c2)nc(CCN2CCC(C)CC2)n3C)cc1	1.2	-1.3
O=C(O)c1cc([N+](=O)[O-])ccc1NCc1ccccc1	0.27	-0.03
CCOc1ccc(-n2c(SCC(=O)OC)nc3sc4c(c3c2=O)CCN(C)C4)cc1	1.6	0.14

Reprinted from above for reference:
SMILES	KCNQ2 pot	KCNQ2 pot baseline
Cc1cc2c(cc1S(=O)(=O)N1CCc3ccccc31)NC(=O)CO2	0.49	0.3
CCCCNC(=O)NNC(=O)COc1cc(C)cc(C)c1	1.5	1.1
CC(=O)C1=C(O)C(=O)N(CCc2c[nH]c3ccccc23)C1c1ccc(O)cc1 (stereo not given)	1.1	-0.42
CCc1csc(CCNC(=O)C2CCC(=O)N(CCOC)C2)n1 (stereo not given)	2.2	0.99
Cc1ccccc1Nc1nc(N)c2ccccc2n1	0.58	-1.7
COc1ccccc1OCCC(=O)OCC(=O)NC(C)c1ccccc1 (stereo not given)	0.08	-0.75
CCC(C)NCCCOc1c(C)cc(C)cc1Br (stereo not given)	0.27	2.2
S=c1[nH]nc(-c2cc(-c3ccco3)[nH]n2)n1-c1ccccc1	0.33	-0.02
Nc1cc(=O)[nH]c(SCCNS(=O)(=O)c2ccccc2)n1	0.43	-0.22
CCn1nc(C(=O)OCC(=O)c2c[nH]c3ccccc23)c2ccccc2c1=O	0.35	1.3
Oc1c(N=Nc2ccc(F)cc2)ccc2ccccc12	0.04	-1.2
CCCN(S(=O)(=O)c1ccc(OCC)cc1)S(=O)(=O)c1cccs1	1.2	0.59
CCOC(=O)c1ccc(NC(=O)CC2SC3=NCCN3C2=O)cc1 (stereo not given)	0.15	0.62
O=C(Cn1cc([N+](=O)[O-])ccc1=O)N1CCCc2ccccc21	0.67	0.16
COc1ccc(C(=O)CC2OC(=O)c3c2ccc(OC)c3OC)cc1 (stereo not given)	0.01	-1
Cc1cc(NC(=O)c2cc([N+](=O)[O-])cc([N+](=O)[O-])c2C)no1	0.27	0.49
CCC(C(=O)Nc1ccccc1C(=O)N1CCOCC1)N1C(=O)c2ccccc2C1=O (stereo not given)	0.09	0.76
CC(=O)N=c1sc2ccccc2n1C	0.29	-0.52

Next compounds:
SMILES	KCNQ2 pot	KCNQ2 pot baseline
Cc1ccc(S(=O)(=O)c2c(N)n(CC3CCOC3)c3nc4ccccc4nc23)cc1 (stereo not given)	0.25	0.25
O=C(O)c1cc2c(N3CCC(Cc4ccccc4)CC3)ncnc2s1	1.4	-0.1
CCN(CC(=O)Nc1ccc(S(=O)(=O)N2CCCC2)cc1)CC(=O)Nc1cccc(OC)c1	0.32	-0.39
O=C(CCC(=O)N1CCSc2ccccc21)NCCc1ccccc1	0.73	1
O=C(COC(=O)c1cccs1)c1ccc2c(c1)OCCO2	0.09	-1.4
CCCCN(Cc1ccccc1)C(=O)c1cnc2n(c1=O)CCS2	0.76	0.75
Cc1ccc(C(=O)Nc2ccc(C(=O)O)cc2)cc1S(=O)(=O)NCc1ccccc1	2	-1.1
O=C(N/N=C/c1ccnc2ccccc12)c1ccccc1O	0.17	-0.96
O=C(O)c1coc2ccccc12	0.05	0.14
Cc1ccccc1C(=O)N1CCC(C(=O)NC2CCCC2)CC1	0.01	2.1
CNC(=O)c1c(C)[nH]c(=S)c(C#N)c1-c1ccco1	0.51	0.18
CNC(=S)Nc1ccc([N+](=O)[O-])cc1C	0.04	0.15
CCOC(=O)C1=C(c2ccccc2)NC(SCC(=O)NC2CCCCC2)=C(C#N)C1c1ccco1 (stereo not given)	1.1	0.68
CC(C)CCn1c(N)c(S(=O)(=O)c2cccs2)c2nc3ccccc3nc21	0.26	-0.23
O=C(c1ccccc1)c1c[nH]c(C(=O)NCc2cccnc2)c1	0.04	-1
CC1CCCCC1NC(=O)CCS(=O)(=O)c1ccc2c(c1)NC(=O)CO2 (stereo not given)	1.8	2.1
